HPGD inh = HPGD (human) dehydrogenase inhibition. P15428. purified HPGD, NADH fluorescence kinetic, PGE2 substrate. Potency, µM, for inactives: at the top dose activity change, negative = inhibition, actives largely listed as inhibitors. 150,000 tested, 4.3% active. AID 894; active = well fitted inhibition curve with a large enough effect (not every such curve was filed as active); inconclusive = small, poorly fitted or top-dose-only effect, or another doubt; inactive = no such curve, though single readings can be large or run the other way;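 further: top concentration of the series not given in the record; plate controls included wells without enzyme; inactives centre near -10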
Target sequence (P15428 whole entry, looked up): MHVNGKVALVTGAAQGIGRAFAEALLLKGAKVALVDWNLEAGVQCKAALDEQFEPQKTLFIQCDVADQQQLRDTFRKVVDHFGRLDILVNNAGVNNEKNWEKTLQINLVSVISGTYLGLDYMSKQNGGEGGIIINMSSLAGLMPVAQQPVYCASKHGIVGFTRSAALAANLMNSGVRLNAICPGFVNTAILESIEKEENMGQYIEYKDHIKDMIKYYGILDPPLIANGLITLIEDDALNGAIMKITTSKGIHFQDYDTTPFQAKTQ
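20 nM HPGD preincubated 15 min at room temperature with compound in 50 mM Tris-HCl pH 8, 0.01% Tween 20. Started with 1 mM NAD+ and 30 uM prostaglandin E2; NADH fluorescence (360/450 nm) read 5 times over 30-s intervals, last minus first.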
Numbers without * were called inactive; ? = inconclusive. On the % scale 0 is the no-effect control and ±100 the full control effect; potency means the concentration at half of the fitted maximal effect. These rows are one share of the data; the hit share may differ from the screen's.

SMILES,HPGD inh
O=c1cccc(-c2ccc(Br)cc2)o1,-9.5%
CCOC(=O)c1sc2ncnc(NCC(c3cccs3)N(C)C)c2c1C (configuration not stated),?
COc1ccc(OCC(=O)Nc2cc(-c3nn(C)c(=O)c4ccccc34)ccc2OC)cc1,?
CC1(C)C(=O)Nc2ccccc2N1C(=O)COC(=O)CCSc1ccccc1,-11.5%
C=CCCCCCCCCC(=O)O,-8.5%
CN(C)S(=O)(=O)N(CC(=O)Nc1ccc2ccccc2c1)c1ccccc1,-19.4%
CSc1ncc(Cl)c(C(=O)NCc2ccc3c(c2)OCO3)n1,-17.3%
O=C(Cn1c(=O)sc2ccccc21)Nc1ccc(S(=O)(=O)N2CCCC2)cc1,-0.2%
COc1ccc2cc3cc(C(=O)N4CCN(c5ccccc5)CC4)oc3nc2c1,-10.9%
Cc1ccccc1NC(=S)N=Nc1c(O)n(C)c2ccc(S(=O)(=O)N3CCOCC3)cc12,?
O=S(=O)(c1ccc2nc(SCc3ccc(Cl)cc3)[nH]c2c1)N1CCOCC1,-13.6%
COc1ccc(NC(=S)NCCc2ccc(F)cc2)c(OC)c1,-1.4%

A few values from the entries so far:
HPGD inh result of COc1ccc(NC(=S)NCCc2ccc(F)cc2)c(OC)c1 → -1.4%
HPGD inh result of CN(C)S(=O)(=O)N(CC(=O)Nc1ccc2ccccc2c1)c1ccccc1 → -19.4%

Two records picked at random from those above, as already listed:
SMILES,HPGD inh
C=CCCCCCCCCC(=O)O,-8.5%
CSc1ncc(Cl)c(C(=O)NCc2ccc3c(c2)OCO3)n1,-17.3%

Next part
SMILES,HPGD inh
Cc1occc1C(=O)NNC(=O)Cc1ccccc1,-2.8%
CCOC(=O)c1ccccc1NC(=O)CSc1nnc(C(C)C)n1CC,-7.2%
Cc1ccc(C2(C)CC(C)(C)N(C(=O)CSc3nnc(C)s3)c3ccccc32)cc1 (configuration not stated),-9.1%
COc1ccccc1C(=O)O/N=C(/C)c1ccc(N2C(=O)C3CCCCC3C2=O)cc1 (configuration not stated),25.1µM*
O=S1(=O)N=CN(Cc2cccc(F)c2)c2ccccc21,-8.6%
CCOC(=O)c1cnc(-n2nc(C)cc2C)nc1NCCc1ccccc1,-16.4%
Cc1cccn2c(=O)c3cc(C(=O)N4CCN(C(=O)c5ccco5)CC4)n(C)c3nc12,?
FC(F)(F)c1ccccc1-c1nc(Nc2ccncc2)c2ccccc2n1,?
Cc1ccc(CNC(N)=S)cc1,-17.6%
C/C=C/C(=O)OCC(=O)Nc1nc2ccc(C)cc2s1,-12.2%
COC(=O)c1ccc(C=O)cc1,-10.9%
COc1ccc(/C=N/Nc2nc(N3CCCC3)nc(N3CCCC3)n2)c(OC)c1OC,-7.8%

Next part.
SMILES,HPGD inh
CCOC(=O)c1c(C)c(C(=O)Nc2ccc(N(C)C)cc2)c(C)n1CC,-8.8%
CN1C(=O)CC(C(=O)O)SC1=Nc1cc(Cl)cc(Cl)c1 (configuration not stated),-16.9%
O=[N+]([O-])c1cc(C(F)(F)F)cc([N+](=O)[O-])c1NN=C1CCCCC1,-13.7%
NCCCCCCNS(=O)(=O)c1cccc2ccccc12,-26.2%
COc1ccc(OC)c(C(=O)CN2C(=O)NC(C)(c3ccccc3)C2=O)c1 (configuration not stated),-19.7%
COc1cccc(OC)c1OCCN(C)C,-9.8%
O=C(CCCOc1ccc(Cl)cc1Cl)NNC(=O)c1ccc(NC(=O)c2ccccc2)cc1,?
CC(=O)c1ccc(OC(=O)C(CCS(C)(=O)=O)N2C(=O)c3ccccc3C2=O)cc1 (configuration not stated),-3.0%
Cc1oc(-c2cccc(Cl)c2)nc1CSCC(=O)O,-7.3%
Cc1ccc2cc(CCNC(=O)c3ccc4c(c3)OCO4)c(=O)[nH]c2c1C,-12.0%
COc1cc(OC)c(C2=NOC(C(=O)NCCc3ccccc3)C2)cc1Cl (configuration not stated),-20.1%
COc1cccc(NC(=S)N2CCCC2)c1,-9.9%

Structures listed above that bear a hit mark in HPGD inh:
SMILES,HPGD inh
COc1ccccc1C(=O)O/N=C(/C)c1ccc(N2C(=O)C3CCCCC3C2=O)cc1 (configuration not stated),25.1µM*

Additional results:
SMILES,HPGD inh
O=C1CCC(/C=C/c2ccccc2)=NN1Cc1ccc(Cl)c(Cl)c1,-12.8%
CCC(C)NC(=O)CCc1c(C)nc2nc(-c3cc(OC)cc(OC)c3)nn2c1C (configuration not stated),-11.1%
CCn1cc(C(=O)OCC(=O)c2cc(C)n(-c3ccc(OC(F)F)cc3)c2C)c(=O)c2ccc(C)nc21,-7.7%
O=C(COC(=O)C1COc2ccccc2O1)NC(=O)Nc1ccc2c(c1)OCCO2 (configuration not stated),-11.0%
CCOc1cc(C2Nc3ccccc3C(=O)N2c2ccccc2)c(Br)cc1OCC(=O)O (configuration not stated),?
C=CCN(C(=O)CNC(=O)c1ccco1)C(C(=O)NC1CCCCC1)c1ccccc1F (configuration not stated),-1.3%
O=C(Nc1ccn(Cc2c(F)c(F)cc(F)c2F)n1)c1cccc(Cn2cc([N+](=O)[O-])cn2)c1,-9.0%
Cc1cc(C)n(-c2ncnc3sc(C)c(C)c23)n1,?
CCCCOc1ccccc1Cn1c(=O)oc2ccccc21,-14.2%
CCOc1cc2c(cc1OCC)C(C(=O)O)C(c1cc(OC)c(OC)c(OC)c1)N(C)C2=O (configuration not stated),-8.9%
O=S(=O)(Cc1ccccc1)c1ccccc1-c1nnc(-c2ccccc2)o1,?
CCN(CC)c1ncnc2scc(C3COc4ccccc4O3)c12 (configuration not stated),-16.8%

Shown as labelled records: entries from further up.
canonical_smiles: COc1ccc(OCC(=O)Nc2cc(-c3nn(C)c(=O)c4ccccc34)ccc2OC)cc1
  HPGD inh: ?
canonical_smiles: CCOC(=O)c1c(C)c(C(=O)Nc2ccc(N(C)C)cc2)c(C)n1CC
  HPGD inh: -8.8%
canonical_smiles: CN1C(=O)CC(C(=O)O)SC1=Nc1cc(Cl)cc(Cl)c1 (configuration not stated)
  HPGD inh: -16.9%
canonical_smiles: CC1(C)C(=O)Nc2ccccc2N1C(=O)COC(=O)CCSc1ccccc1
  HPGD inh: -11.5%

Carrying on:
| compound | HPGD inh |
| --- | --- |
| CCCCN(C(=O)NC(=O)Nc1ccccc1C)S(C)(=O)=O | -1.1% |
| CN(C)c1ccc(/C=C/c2cc[n+]([O-])cc2)cc1 | -14.0% |
| COc1cc(/C=N/NC(=O)c2c(-c3ccccc3)noc2C)cc(OC)c1OC | -19.6% |
| COc1ccc(CNC(=O)C(c2ccncc2)N(C(=O)Cc2cccs2)c2cccc(C)c2)cc1 (configuration not stated) | -12.2% |
| O=C(/C(=C(/[O-])c1ccccc1)[n+]1ccccc1)c1ccc([N+](=O)[O-])cc1 | -14.9% |
| COc1ccc(N(CC(=O)Nc2ccc3c(c2)OCO3)S(=O)(=O)c2ccccc2)c(OC)c1 | ? |
| O=C(NC1CCS(=O)(=O)C1)N1CCCCC1 (configuration not stated) | -1.6% |
| CCNS(=O)(=O)c1cc(Br)ccc1OC | -11.4% |
| Cc1ccc(Nc2nc(NCCCN3CCOCC3)nc(N)c2[N+](=O)[O-])cc1C | -10.6% |
| Cc1ccc(-c2nc3c(=O)n(C)c4ccccc4c3o2)cc1 | -19.8% |
| Cc1cc(C)c(NC(=O)CS(=O)CC(=O)N2CCN(c3ccc(F)cc3)CC2)c(C)c1 (configuration not stated) | -11.1% |
| CO/N=C(/C(=O)N[C@H]1C(=O)N2C(C(=O)O)=C(COC(C)=O)CSC12)c1csc(N)n1 (some centres not stated) | -25.2% |
| COc1ccccc1NC(=O)Nc1ncccc1C | -11.8% |
| COc1ccccc1N(C(=O)CNC(=O)c1ccco1)C(C(=O)NC1CCCC1)c1ccncc1 (configuration not stated) | -5.9% |
| O=C(CC1C(=O)N(c2ccccc2)C(=S)N1c1ccccc1)c1ccccc1 (configuration not stated) | -10.6% |
| CC1(OC(=O)C2CCCC2)C(=O)C=C2C=C(c3ccc(C#N)cc3)OC=C2C1=O (configuration not stated) | -3.9% |
| O=C(Cn1c(C(=O)NCC2CCCO2)cc2sccc21)c1ccccc1 (configuration not stated) | -7.0% |
| O=C(O)CCC(=O)c1ccc2ccc3cccc4ccc1c2c34 | ? |
| CCC(C)NC(=S)N1CCN(C(c2ccccc2)c2ccccc2)CC1 (configuration not stated) | -14.7% |
| Cc1ccc(Nc2nnc(SCC(=O)Nc3cccnc3Cl)s2)cc1C | -23.5% |
| O=C(Nc1ccc(F)cc1)c1cn(-c2ccccc2)nc1-c1ccncc1 | -9.5% |
| N/C(CN1CCCC1=O)=N\O | -7.6% |
| COc1ccccc1OCCSc1nc2ccccc2c(=O)[nH]1 | -10.6% |
| O=C(c1ccco1)N1CCC[C@@]2(CCN(c3ccccn3)C2)C1 | -27.7% |
| CCNC(=O)NC(=O)COC(=O)c1cccc(NS(=O)(=O)/C=C/c2ccccc2)c1 | -1.1% |
| Cn1c(=O)oc2cc(S(=O)(=O)NCCC(=O)NCCc3ccc(Cl)cc3)ccc21 | -2.4% |
| O=C(c1ccccc1)c1nn(-c2ccc(Cl)cc2)cc1C(=O)c1cc2ccccc2oc1=O | -13.0% |
| CCCC[C@@H]1C[C@H]1C(NC(=O)c1cccnc1)c1ccc(-c2ccccc2)cc1 (some centres not stated) | -11.3% |
| Cc1ccccc1Nc1cc2ccccc2c(=O)[nH]1 | ? |
| CCc1sc(C(=O)Nc2ccsc2C(=O)OC)cc1Br | ? |

Carrying on:
| compound | HPGD inh |
| --- | --- |
| CCOC(=O)CNc1nc(C#N)nc(N2CCOCC2)n1 | -4.4% |
| CCN(CC)C(=O)CN(c1ccc(C)cc1)S(=O)(=O)c1ccc(SC)cc1 | -8.1% |
| Oc1ccc(-c2cnns2)c(O)c1 | 2µM* |
| COc1cccc(NC(=O)CCCn2c(=O)[nH]c3ccccc3c2=O)c1 | -17.4% |
| Cc1ccccc1CSCCNC(=O)c1ccccc1 | 31.6µM* |
| CCOc1ccc(N(C(C)=O)C2C=CS(=O)(=O)C2)cc1 (configuration not stated) | -8.9% |
| CCc1nnc(NC(=O)c2cccc(S(=O)(=O)N3CC(c4ccccc4)CC3=O)c2)s1 (configuration not stated) | -14.2% |
| Cc1occc1-c1nnc(SCC(=O)Nc2nc(C(C)(C)C)cs2)o1 | -7.5% |
| COC(=O)c1sc(N)c(C(=O)OC)c1COC(=O)c1c(C)noc1C | 17.8µM* |
| Cc1ccc(/C=N/NC(=O)CSc2nnc(-c3ccc(Cl)cc3)n2-c2ccc(Cl)cc2)o1 | -3.9% |
| O=C(Nc1ccon1)c1csc2c1CCCC2 | ? |
| CC1CN(C2CCCCC2)c2nc3c(c(=O)[nH]c(=O)n3C)n2C1 (configuration not stated) | -11.9% |
| O=C(Nc1ccncc1)c1ccc2c(c1)OCCO2 | -8.4% |
| CN(C)S(=O)(=O)c1ccc2c(c1)c(=O)c(C(=O)NCCCN1CCCCCC1)cn2C | -16.4% |
| O=c1c(-c2cc(O)c(O)c(O)c2)coc2cc(O)c(O)c(O)c12 | 7.08µM* |
| Cc1ccc(C)c(NC(=O)CSc2nnc(-c3n[nH]c4ccccc34)o2)c1 | -24.3% |
| CSc1nc(N)nc(SCC(=O)Nc2cccc(F)c2)c1C#N | 20µM* |
| COc1ccc(C(=O)CN2CCN(c3ccc(F)cc3)CC2)cc1OC | -0.8% |
| CN(C)S(=O)(=O)c1ccc(Nc2ccc(-c3ccc4c(c3)OCCO4)nn2)cc1 | -15.2% |
| COc1ccc(S(=O)(=O)N2CCOCC2)cc1OC | -1.7% |
| CCCC1=C(C(=O)OCC)C(c2ccc(NC(C)=O)cc2)NC(=O)N1 (configuration not stated) | -1.0% |
| CCOC(=O)CNC(=O)CNC(=O)c1ccc(OCC(C)C)cc1 | -3.9% |
| Cc1ccc(OC(C)C(=O)Nc2ccc(S(=O)(=O)Nc3cc(C)on3)cc2)cc1 (configuration not stated) | -5.8% |
| O=C(Nc1ccc2oc(-c3ccncc3)nc2c1)c1ccccc1F | ? |
| O=C(NCCc1nc2ccccc2[nH]1)c1ccc(F)cc1 | -1.4% |
| COCCn1c(SCC(=O)OC(C)C)nnc1-c1ccccc1 | -4.0% |
| COc1ccc(-c2nnc3sc(C4CCCCC4)nn23)cc1OC | -26.8% |
| Cc1cc(=O)oc2cc(OC(=O)c3nn(C(C)C)c(=O)c4ccccc34)ccc12 | ? |
| O=C(O)Cc1cccc2c(=O)cc(-c3ccccc3)oc12 | -4.7% |
| COc1ccc(/C(O)=C2/C(=O)C(=O)N(c3ncccn3)C2c2ccc(OC)cc2)cc1 (configuration not stated) | -13.2% |

Later entries
| compound | HPGD inh |
| --- | --- |
| Cc1cccc(NC(=O)Cn2nnc(-c3ccc(CN4CCCC4)cc3)n2)c1C | -11.0% |
| CCc1ccc(-n2c(SCC(=O)Nc3cc(C)[nH]n3)nc3[nH]ncc3c2=O)cc1 | -8.8% |
| CN1CCC(N(C)C(=S)Nc2ccc(SC(F)F)cc2)CC1 | -1.7% |
| O=C(Nc1ccccn1)c1ccc([N+](=O)[O-])cc1Cl | -1.6% |
| Cc1ccc(/C=C2\SC(=S)N(CC(=O)Nc3ncc(Cc4ccccc4Cl)s3)C2=O)cc1 | ? |
| CC1(C)CCCC(C)(C)N1CC(O)COCCOc1ccc(Br)cc1 (configuration not stated) | -2.7% |
| CCC(C)NC(=O)N[C@@H](CCSC)C(=O)O (some centres not stated) | -3.0% |
| O=C(CN(c1ccc(F)cc1)S(=O)(=O)c1ccc2c(c1)OCCO2)NCc1ccncc1 | 6.7% |
| COCCCNC(=O)Cn1cc(C(C)=O)c2ccccc21 | -3.2% |
| N#CC1=C(N)C2=CCCC[C@H]2[C@H](c2ccccc2)C1(C#N)C#N | -2.0% |
| CCc1ccc(CCC(=O)Nc2nccs2)o1 | -27.8% |
| CCOc1ccccc1NC(=O)CSc1nnnn1-c1ccccc1 | -18.0% |
| O=C(NN=C1CCN(Cc2ccccc2)CC1)c1ccccc1 | -4.7% |
| CCN(CC)CCN(C)Cc1ccc(Br)cc1 | -8.5% |
| COc1ccc(/C=N/OCC(=O)N(Cc2ccccc2)c2ccccc2C(=O)O)cc1 | -8.7% |
| COCc1cc(C)nc(N2CCN(Cc3ccccc3)CC2)c1C#N | -16.7% |
